From PubChem
Choline anaer gr: choline-fed anaerobic bacterial growth inhibition; Gram-negative bacterium anaerobic choline minimal medium, absorbance growth; hits give low values; many inactives read as strong as hits in the columns shown; calls only; 55,000 tested, 0.2% active;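 active = growth z-score on choline under -2 at 7 or 20 h with little or no fall on glycerol, limits in tiers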;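 note: stock transfer was 300 nL into about 50 µL; the organism is E. coli; final concentration not given here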
Choline anaer gr early: also measured in Choline anaer gr; calls as there; z-score; measured here: choline growth z-score, timepoint 1;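 score of optical density at 7 h as mean of two plates; lower means less growth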
* = called active by the depositor; i = inactive; + = active, no number.

SMILES | Choline anaer gr | Choline anaer gr early
O=C(C1CCCN(S(=O)(=O)c2cccc3cccnc23)C1)N1CCN(c2ccc(F)cc2)CC1 (configuration not stated) | i | 0.1
COc1ccc(C(=O)Nc2cc(C)c(O)c(-c3nc4ncccc4o3)c2)cc1Cl | i | 0.72
Cn1cc(S(=O)(=O)N2CCCCC2)cc1C(=O)NC1CCCCC1 | i | 1.32
COc1ccccc1N1CCN(c2ccc(SCC(=O)Nc3cc(C)ccc3C)nn2)CC1 | i | 0.82
CCOC(=O)c1ccc(NC(=NCc2ccncc2)NC(=O)c2cc(OC)c(OC)c(OC)c2)cc1 | i | -1.49
Cc1ccc(Cl)cc1NC(=O)C1CCN(S(=O)(=O)c2c(C)[nH]c(C)c2C(=O)N2CCCC2)CC1 | i | -1.89
CCCCC/C=C\C/C=C\CCCCCCCCCC(=O)O | + | -3.23*
C=CCOc1c(OC)cccc1C1CC(=O)Nc2c1c(C)nn2-c1ccc2nnc(C)n2n1 (configuration not stated) | i | 0.47
Cc1ccc(Cn2c3ccccc3c3cnn(CC(=O)N4CCCC4)c(=O)c32)cc1 | i | 1.23
CCCCn1nnc(NCc2ccc(-c3ccc(Cl)cc3)o2)n1 | i | 0.11
CCOC(=O)c1noc2ncnc(Nc3ccc(F)cc3)c12 | i | -0.49
O=C(C1CCN(c2ncnc3c2sc2cccc(F)c23)CC1)N1CCCC1 | i | 0.33
O=C(CCC(=O)N1CCc2cc(S(=O)(=O)NC3CCCCC3)ccc21)N1CCCCC1 | i | -0.12
Cc1cccc(-c2nc3c4ccccc4n(CC(=O)c4ccc(C)cc4C)c(=O)n3n2)c1 | i | 0.9
CCOC(=O)[C@H]1O[C@@H]1C(=O)N[C@@H](CC(C)C)C(=O)NCCC(C)C | i | 0.58
O=S(=O)(c1ccc2c(c1)CCC2)N1CCCn2nc(-c3cccs3)cc2C1 | i | 0.82
CC1(C)O[C@@H]2C[C@H]3[C@@H]4CCC5=CC(=O)CC[C@]5(C)[C@@]4(F)[C@@H](O)C[C@]3(C)[C@]2(C(=O)CCl)O1 | i | 0.24
Cc1cc(C)n(CC(=O)Nc2cccc(Oc3ccccc3)c2)c(=O)c1-c1nc(-c2ccc(Cl)cc2)no1 | i | -0.13
O=C(c1cc2nc(C3CC3)cc(C(F)(F)F)n2n1)N1CCCC1c1cccc(F)c1 (configuration not stated) | i | 0.24
CN(C)S(=O)(=O)c1ccc(-c2noc(C(=O)NCCN3CCOCC3)n2)cc1 | i | -0.22
Cc1cc(C(=O)Nc2cccc(Cl)c2)no1 | i | -4.22
CCOc1ccc(NS(=O)(=O)c2cc(-c3cnn4c(C)cc(C)nc34)ccc2C)cc1 | i | 0.98
COc1ccc(NC(=O)CN2CCN(Cc3ccccc3Cl)S2(=O)=O)cc1Cl | i | 0.92
COc1cccc(N2CCN(S(=O)(=O)c3cc(-c4nc(C(C)C)cs4)cs3)CC2)c1 | i | 0.02
CCS(=O)(=O)N1CCN(C(=O)c2cc(-c3ccc(OC)cc3)n[nH]2)CC1 | i | 0.65
O=C(NCc1cccc(Cl)c1)C1CCN(c2ncccc2-c2nc(-c3ccccc3)no2)CC1 | i | 1.25
COc1ccc(CCNC(=O)CCc2nnc3c4cc(-c5ccc(C)c(C)c5)nn4ccn23)cc1OC | i | -0.15
CC(=O)n1nc(-c2ccccc2)nc1N | i | -0.56
Cc1c(NC(=O)c2cccc(Cl)c2)c(-n2cnnc2)nn1C | i | -0.6
CCOC(=O)N1CCN(c2ncc3c(n2)CC(C)CC3=O)CC1 (configuration not stated) | i | 0.38
CCc1nnc(-c2cc(S(=O)(=O)NC3CCC(C)CC3)c[nH]2)o1 (configuration not stated) | i | 0.28
CCn1c(/C=C/c2cn(CC)c3ccccc23)nc2ccccc2c1=O | i | 0.5
COc1ccc(NC(=O)N2CCN(C)c3ncccc32)cc1 | i | -1.12
Cc1ccc(NC(=O)N2CCN(Cc3cc(=O)n4nc(-c5ccccc5)sc4n3)CC2)cc1C | i | 0.29
Cc1ccc2c(c1)NC(=O)c1cc(S(=O)(=O)N3CCSCC3)c(Cl)cc1O2 | i | -0.25
Cc1ccc2c(c1)NC(=O)c1cc(S(=O)(=O)N3CCCCC3C)c(Cl)cc1O2 (configuration not stated) | i | 0.12
O=C(OCC1CCCO1)c1cnn2c(C(F)(F)F)cc(-c3ccc(F)cc3)nc12 (configuration not stated) | i | 0.45
CN1C(=O)COc2ccc(C(=O)n3ccnc3)cc21 | i | 0.58
Cc1nc2c(nc(SCc3nc(-c4ccc(Cl)cc4)oc3C)n2C)c(=O)[nH]1 | i | 1.26
O=C(c1cn(-c2cc(N3CCSCC3)ncn2)cn1)N1CCSCC1 | i | -0.37
O=C(c1cccnc1)N1CCOCC1 | i | -0.14
Cc1ccc(-c2nc(C)cc3nn(CC(=O)Nc4cccc(Br)c4)c(=O)n23)cc1 | i | 0.87
Cc1nn(CC(=O)N2CCCCC2)c(=O)c2c(-n3cccc3)n(-c3ccccc3)nc12 | i | -0.52
CN1CC(=O)N/C1=N/C(=O)Nc1cccc(Cl)c1 | i | 0.6
O=S1(=O)C[C@H](NCCc2c[nH]c3ccccc23)[C@@H](S(=O)(=O)c2ccc(Cl)cc2)C1 | i | -0.9

Rewritten as a markdown table: part of the list above.
| Molecule | Choline anaer gr | Choline anaer gr early |
| --- | --- | --- |
| COc1ccc(CCNC(=O)CCc2nnc3c4cc(-c5ccc(C)c(C)c5)nn4ccn23)cc1OC | i | -0.15 |
| CC(=O)n1nc(-c2ccccc2)nc1N | i | -0.56 |
| Cc1c(NC(=O)c2cccc(Cl)c2)c(-n2cnnc2)nn1C | i | -0.6 |
| CCOC(=O)N1CCN(c2ncc3c(n2)CC(C)CC3=O)CC1 (configuration not stated) | i | 0.38 |
| CCc1nnc(-c2cc(S(=O)(=O)NC3CCC(C)CC3)c[nH]2)o1 (configuration not stated) | i | 0.28 |
| CCn1c(/C=C/c2cn(CC)c3ccccc23)nc2ccccc2c1=O | i | 0.5 |
| COc1ccc(NC(=O)N2CCN(C)c3ncccc32)cc1 | i | -1.12 |
| Cc1ccc(NC(=O)N2CCN(Cc3cc(=O)n4nc(-c5ccccc5)sc4n3)CC2)cc1C | i | 0.29 |
| Cc1ccc2c(c1)NC(=O)c1cc(S(=O)(=O)N3CCSCC3)c(Cl)cc1O2 | i | -0.25 |
| Cc1ccc2c(c1)NC(=O)c1cc(S(=O)(=O)N3CCCCC3C)c(Cl)cc1O2 (configuration not stated) | i | 0.12 |
| O=C(OCC1CCCO1)c1cnn2c(C(F)(F)F)cc(-c3ccc(F)cc3)nc12 (configuration not stated) | i | 0.45 |
| CN1C(=O)COc2ccc(C(=O)n3ccnc3)cc21 | i | 0.58 |
| Cc1nc2c(nc(SCc3nc(-c4ccc(Cl)cc4)oc3C)n2C)c(=O)[nH]1 | i | 1.26 |
| O=C(c1cn(-c2cc(N3CCSCC3)ncn2)cn1)N1CCSCC1 | i | -0.37 |
| O=C(c1cccnc1)N1CCOCC1 | i | -0.14 |
| Cc1ccc(-c2nc(C)cc3nn(CC(=O)Nc4cccc(Br)c4)c(=O)n23)cc1 | i | 0.87 |

New compounds follow.
SMILES | Choline anaer gr | Choline anaer gr early
Cn1c(=O)n(CC(=O)O)c(=O)c2c1nc1n2CCN1c1ccc(F)cc1 | i | -2.17
Cc1cc(N2CCCCC2)nc(N2CCN(C(=O)C3CCCCC3)CC2)n1 | i | -1.31
CN(C)c1ccc(C(CNS(=O)(=O)c2ccccc2Cl)N(C)C)cc1 (configuration not stated) | i | -0.36
Cc1ccnc(NC(=O)C2CCN(S(=O)(=O)c3cc(-c4noc(C5CC5)n4)ccc3C)CC2)c1 | i | 0.55
Clc1ccc(-c2nnc(-c3nc(NCc4ccccc4)c4ccccc4n3)o2)cc1 | i | 0.38
CC1=C(c2ccc(C)cc2)S(=O)(=O)NC1=NCCCN1CCC(Cc2ccccc2)CC1 | i | -2.73
Cc1ccc(C)c(NC(=O)N2CCN(C(=O)c3nsc4ccccc34)CC2)c1 | i | 0.88
CC1(C(=O)NC2CCCC2)Cn2c(cc3sccc32)C(=O)N1Cc1ccc(Cl)cc1 (configuration not stated) | i | -1.37
CC(C(=O)Nc1ccc(Br)cc1)n1nnc2sc(-c3ccccc3)cc2c1=O (configuration not stated) | i | 1.57
O=C1CN(Cc2cccc(Br)c2)S(=O)(=O)c2ccccc2N1Cc1cccc(F)c1 | i | -0.04
COc1ccc2oc(-c3noc(-c4ccnn4C)n3)c(C)c2c1 | i | -0.47
Cc1ccc(-c2cccc3c(C(=O)N4CCN(c5ncccn5)CC4)cc(C)nc23)cc1 | i | -0.15
COc1ccc(Br)cc1CNc1nc(C)nc2c(-c3ccc(Cl)cc3)noc12 | i | 1.01
O=C(NCCCN1CCN(c2cccc(Cl)c2)CC1)c1cc(=O)n2c(nc3ccccc32)s1 | i | 0.49
COc1ccc(Cl)cc1NC(=O)Nc1cccc(OCc2cc(=O)n3cccc(C)c3n2)c1 | i | -0.53
CCCOc1ccc(C2CC(=O)Nc3c2c(=O)n(C)c(=O)n3C)cc1OC (configuration not stated) | i | 1.09
COC(=O)c1cc(OC)c(OC)cc1NC(=O)c1ccc2c(c1)CCN2S(C)(=O)=O | i | 0.57
CC1Cc2cc(S(=O)(=O)N(C)CC(=O)Nc3cccnc3)ccc2N1C(=O)C1CC1 (configuration not stated) | i | -0.13
O=C1COc2cc(S(=O)(=O)N3CCCC3C(=O)Nc3ccccc3)c(Cl)cc2N1 (configuration not stated) | i | -1.54
Cc1cccc(NC(c2cccnc2)c2c(NC(=O)c3ccccc3)sc3c2CCCC3)n1 (configuration not stated) | i | -0.1
O=C(NCCCCN1CCN(c2cccc(Cl)c2Cl)CC1)c1ccc2c(c1)Cc1ccccc1-2 | i | 0.56
CC(=O)Nc1ccc(-c2noc(C3CCCN(C(=O)c4ccc(C)c(C)c4)C3)n2)cc1 (configuration not stated) | i | -0.12
CCCc1cc(C2CCCN2Cc2cccc(F)c2F)no1 (configuration not stated) | i | 0.92
O=C1CN(CCc2ccccc2)[C@H]2CS(=O)(=O)C[C@H]2N1c1ccc(Br)cc1 | i | 1.46
O=C(c1sc2ncccc2c1-n1cccc1)N1CCSCC1 | i | -0.35
COc1ccc(Cl)cc1NC(=O)c1cccc(-c2cc(Oc3ccccc3OC)ncn2)c1 | i | 2.58
O=C(COc1ccc(-c2cnc3ccccc3n2)cc1)Nc1cc(F)ccc1F | i | -0.07
CCc1cc(C2CCCN2S(=O)(=O)c2ccc(C)c(C)c2)on1 (configuration not stated) | i | 1.11
O=C(Nc1ccc2oc(-c3cccc(Br)c3)nc2c1)c1ccc2c(c1)OCCO2 | i | -0.08
Cc1ccc(-c2cncc(C(=O)NCc3ccc(Br)cc3)c2)cc1 | i | 1.71
Cc1oc2ncn(CC(=O)N3CCC(C(N)=O)CC3)c(=O)c2c1C | i | -0.77
C[N+]1(C)CCCC(OC(=O)C(O)(c2ccccc2)c2ccccc2)C1 (configuration not stated) | i | 0.38
CCc1c(C)nc2ncnn2c1Sc1ccccc1NC(=O)c1ccccc1 | i | -0.86
COc1ccc(NC(=O)c2c(-c3ccccc3Cl)noc2C)cc1-n1cnnn1 | i | 0.89
O=C(Cc1ccc(NC(=O)N2CCSc3ncccc32)cc1)Nc1ccc(F)c(F)c1 | i | -0.33
O=C(C=Cc1ccc(O)c(O)c1)OC1C[C@@](O)(C(=O)O)CC(O)C1O (some centres not stated) | i | 0.51
O=C(Nc1ccc(F)cc1)c1cnn(-c2ccc(Br)cc2)c1 | i | 0.77
CCSc1nccc2c1ccn2CC(=O)NCc1ccc(Br)cc1 | i | 0.11
Clc1cccc(CSc2nnc(-c3ccncc3)o2)c1 | i | -1.25
CCCC(=O)Nc1nc2ccc(S(=O)(=O)N(CC)CC)cc2s1 | i | -0.31
COC(=O)c1sc2cccc(F)c2c1S(=O)(=O)N1CCC(C(N)=O)(N2CCCCC2)CC1 | i | -0.78
Clc1ccc(-c2noc(CSc3nccn3-c3ccccc3)n2)cc1 | i | 0.67
Cc1ccc(C(=O)NCC(=O)Nc2cc(-c3nc(C)cs3)sc2C)cc1 | i | -0.5
CCOc1ccccc1-c1noc(CSc2nc3c(-c4ccccc4)c[nH]c3c(=O)[nH]2)n1 | i | 1.58
Cc1cc(C(=O)NCC2CCCO2)c2c(=O)n(C)c(=O)n(C)c2n1 (configuration not stated) | i | 0.79
CC(C)(C)C(=O)Nc1cccc(-c2nc(-c3ccccc3)no2)c1 | i | 0.7
Cc1nc(N2CCCC2)c2c(C)c(C(=O)N3CCOCC3)sc2n1 | i | 1.15
CCOc1cc(C2Nc3ccc(OC)cc3[C@H]3OCCC[C@@H]23)cc(Br)c1OC (some centres not stated) | i | 0.28
Cc1noc(C)c1C1CCCN1C(=O)c1cc(-c2ccco2)on1 (configuration not stated) | i | 0.47
COc1ccc2[nH]cc(CCNC(=O)CCn3c(=O)c(C)nc4cc(C)c(C)cc43)c2c1 | i | -0.62
Cc1nn(C)c(C)c1S(=O)(=O)N(CC(=O)N1CC=C(c2ccccc2)CC1)c1ccc(C(C)C)cc1 | i | -0.21
COc1cccc(CNC(=O)C2CCN(c3nc4ccccc4n(C)c3=O)CC2)c1 | i | 0.35
Cc1nc2ccccc2c2c1C(=O)N(c1ccc(C(=O)OCc3ccccc3Cl)cc1)C2=O | i | -2.2
c1cc2nnc(C3CCC3)n2nc1NCC1CCCO1 (configuration not stated) | i | 0.16
Cc1cccc(C)c1-n1nnnc1C(C)(C)N | i | -0.81
Cc1c(C(=O)N2CCC(C)CC2)oc2ccc3c(c12)C(O)CC1(CCCCC1)O3 (configuration not stated) | i | -1.05
CCOC(=O)c1cnn(-c2ccc(Cl)nn2)c1C | i | -0.3
O=C(Cn1cccc1-c1nnc(C2CC2)o1)NC1CCCCC1 | i | 0.3
O=C1C=CC(=O)C2=C1C1c3ccccc3C2c2ccccc21 | i | 0.49
CC(=O)N1CCCSc2ccc(S(=O)(=O)NCCCOC(C)C)cc21 | i | 0.3
C=C/C(C)=C/[C@@]1(C)SC(=O)C(C)=C1O | i | -0.87
CCc1nc(-c2cc(S(=O)(=O)N3CCCC(C(=O)Nc4ccc(C)c(F)c4)C3)c(C)s2)no1 (configuration not stated) | i | 1.2

Some of the compounds tested; count on the stated rates, not on these rows.
